VACV Venus inh = vaccinia inhibition (Venus reporter). Potency, µM (highest dose often 36.5 µM), for the others: at the top dose activity change, negative = inhibition, most hits filed as inhibitors. hit rate 0.46% among 330,000. Vaccinia virus Venus reporter expression, fluorescence; active means well fitted inhibition curve with a large enough effect; inconclusive means small, poorly fitted or top-dose-only effect; inactive means no such curve, though single readings can be large or run the other way; tested in A549 cells; further: nearly all actives have a fitted effect of over 30% in size; inactives centre near -10
VACV mCherry inh = inhibitors of vaccinia virus infection (mCherry reporter signal); hit rate 0.63% among 310,000; Vaccinia virus mCherry reporter infection, fluorescence; about a quarter of the inactives have no number; Potency, µM (doses to about 36.5 µM), for the others: at the top dose activity change, negative = inhibition, actives largely listed as inhibitors; active = well fitted inhibition curve with a large enough effect; inconclusive = small, poorly fitted or top-dose-only effect; inactive = no such curve, though single readings can be large or run the other way; tested in A549 cells; further: nearly all actives have a fitted effect of over 35% in size; inactives centre near -10
Starred values were filed as active, the others as inactive; i = inactive; u = inconclusive; x = no result given; & = joins results of further samples; [ ] = another dose, or the depositor's remark. On the % scale 0 is the no-effect control and ±100 the full control effect; potency means the concentration at half of the fitted maximal effect.

SMILES	VACV Venus inh	VACV mCherry inh
CC(C)=CC(=O)OCC(=O)Nc1ccc(Cl)cc1	-19%	-19%
O=C(c1cc[n+]([O-])cc1)N1CCc2c([nH]c3ccccc23)C1c1ccccc1Cl (stereo not given)	-10%	-8%
CCCOc1ccc(CC(=O)NCc2ccco2)cc1OC	11%	x
CCCN1C(=O)C(=O)N(CC(=O)c2cc(C)n(C3CC3)c2C)C1=O	-18%	-18%
CCOC(=O)c1c(NC(=O)COc2ccc(Br)cc2)sc2c1CCCC2	11%	-7%
Cc1nnc(SC(C)C(=O)N2CCc3ccccc32)s1 (stereo not given)	-25%	x
COc1ccc(NC(=O)c2ccco2)cc1NC(=O)C(C)Oc1ccc(Cl)cc1Cl (stereo not given)	-14%	-13%
Cc1cccc(OCC(=O)NC(=S)Nc2ccccc2N2CCOCC2)c1	-14%	-21%
CS(=O)(=O)N(Cc1ccccc1)c1ccc(C(=O)Nc2ccc(Cl)cc2)cc1	-21%	i
COc1ccc(CN(C)CC(=O)c2c(N)n(Cc3ccccc3)c(=O)n(C)c2=O)c(OC)c1	-22%	-6%
C[C@H](NC(=O)c1nc[nH]c1C(=O)N[C@@H](Cc1ccccc1)C(=O)OC(C)(C)C)c1ccccc1	u	-29%
CCOc1ccc(S(=O)(=O)N2CC(=O)Nc3ccccc32)cc1	u	u
Cc1c(-c2nsc(NC(=O)c3cccc(Cl)c3)n2)nnn1-c1ccccc1C(F)(F)F	u	-23%
CC(=O)c1c(C)[nH]c(C(=O)Nc2cc(F)ccc2C)c1C	-19%	i
Cc1cc(NC(=O)CSc2nnc(CNC(=O)c3ccc(C(C)(C)C)cc3)o2)no1	-5%	-9%
C=CC1CN2CCC1CC2[C@@H](OC(=O)c1ccc(OC)cc1)c1ccnc2ccccc12 (stereo not given in full)	-17%	-28%
NCCNc1ccc2nnnn2n1	-2%	-6%
O=C1C/C(=C/NCc2ccccc2)C(=O)N1	-7%	x
CN(C)c1ccc(-c2[nH][nH]c(=O)c2NC(=O)c2ccc3ccccc3n2)cc1	8%	60%[activator]
COC(=O)Cn1nnnc1-c1nc2cc(C)c(C)cc2[nH]c1=O	-5%	-8%
Cc1cc(C)c2c(n1)sc1c(=O)n(-c3ccccc3C(F)(F)F)nnc12	-5%	-8%
CNC(=S)N1CCN(c2nc(-c3ccc(Cl)cc3)cs2)CC1	-17%	u
Cc1ccc(S(=O)(=O)N(C)C)cc1NC(=O)C(C)OC(=O)C1CCCC1 (stereo not given)	-2%	-14%
CC1(C)C(=O)Nc2ccccc2N1C(=O)COC(=O)Cc1ccccc1F	-1%	i
CCOc1ccccc1C(=O)N(Cc1sccc1C)C1CCS(=O)(=O)C1 (stereo not given)	-17%&3%	-2%
Cc1cccc2sc(NC(=O)CN(C)S(=O)(=O)c3ccc(Br)s3)nc12	u	x
CCOc1ccc(N2C(=O)C3C(c4ccc(OC)cc4OC)NC(CCSC)(C(=O)OC)C3C2=O)cc1 (stereo not given)	-7%	i
COC(=O)C[C@H]1c2cc(F)ccc2S(=O)(=O)N1c1ccccc1	-15%&-8%	-15%
COc1ccc(N2CCN(S(=O)(=O)c3cccc4cccnc34)CC2)cc1	-12%	i
CCOC(=O)/C(=N\Nc1ncnc2ccccc12)c1ccc(OC)cc1	21%	5%
Cc1ccc(N(C(=O)CNC(=O)c2ccco2)C(C(=O)NC2CCCC2)c2ccncc2)cc1C (stereo not given)	2%	12%
Cc1ccc(N=Nc2c(=O)[nH]n3c(=O)cc(C)[nH]c23)cc1	-3%	-10%
C/C=C(\C)C(=O)OC(C)(C)[C@@H]1Cc2cc3ccc(=O)oc3cc2O1	-1%	-22%
Cc1nc(CSc2nnc(C)s2)cs1	-11%	-1%
COc1ccc(CNC(=O)c2ccc(N(C)S(=O)(=O)c3ccc(C)cc3)cc2)cc1	u	-23%
Cn1cnc(S(=O)(=O)NCc2cccs2)c1	-18%	x
COc1ccc(S(=O)(=O)Nc2cccc3c2O[C@H](CN(C)Cc2ccc(C(=O)O)cc2)[C@@H](C)CN([C@H](C)CO)C3=O)cc1	-6%	-1%
COc1ccccc1C(=O)Nc1nc2n(n1)C(c1ccc(F)cc1)C=C(c1ccc(Cl)cc1)N2 (stereo not given)	-23%	-19%
CC1/C(=N/O)CC(c2ccccc2)NC1c1ccccc1 (stereo not given)	-8%	-9%
CC(C)(C)NC(=O)C1(N2C(=O)c3ccccc3C2=O)CCCC1	-14%	i
CC(C)c1ccc(N2C(=O)CC(NNC(=O)c3ccccc3Cl)C2=O)cc1 (stereo not given)	1%	i
COC(=O)[C@]12CCCCC=C1N(Cc1ccc3c(c1)OCO3)C(=O)[C@H](CC(=O)N1CCC(c3ccccc3)CC1)C2	-29%	u
COc1ccc(CCNC(=O)CCC(=O)Nc2nnc(C(C)C)s2)cc1OC	-7%	i
CSCCC(=O)N1CCC(CCC(=O)NC2CC2)CC1	-17%	-13%
Cc1cc(C(=O)COC(=O)Cc2c(F)cccc2Cl)c(C)n1C	-12%	-24%
CC(=O)N1c2ccccc2C(=O)C1N1CCCCC1 (stereo not given)	-6%	x
COc1cccc(N2CCN(c3ccc4nnc(CCC(=O)Nc5ccc(F)cc5F)n4n3)CC2)c1	-11%	i
O=C(Oc1ccc(Br)cc1C(=S)N1CCOCC1)c1cccc([N+](=O)[O-])c1	-24%	-28%
COc1ccc(-c2csc3ncnc(Nc4cccc(F)c4)c23)cc1	-1%	-11%
Cc1c(/C(O)=C2/C(=O)C(=O)N(Cc3cccnc3)C2c2ccccn2)cnn1-c1ccccc1 (stereo not given)	8%	-9%
CC(=O)c1cccc(NC(=O)C(OC(=O)c2cccc(S(=O)(=O)N(C)c3ccccc3)c2)c2ccccc2)c1 (stereo not given)	0%	-5%
COc1ccc(-c2c(C#N)c(SCC(N)=O)nc3c2CCCC3)cc1	-13%	-22%
CN1C(=O)CC(CC(=O)N2CCCCC2CCO)(c2cccc(F)c2)C1=O (stereo not given)	0%	-10%
O=C(CSc1nc(-c2ccccc2)nc2ccccc12)Nc1nccs1	-24%	-8%
CC1(C)Cc2ccccc2/C(=C/C(=O)N2CCCCCC2)N1	-13%	-1%
CSc1nc(C)c(C(=O)C[n+]2ccc(C)cc2)cc1C#N	-10%	u
CC(C)Nc1nc(NC(C)C)nc(SCCOC(=O)Nc2ccc(Cl)cc2Cl)n1	-4%	-4%
CC1CCCC(NCC(O)COC(c2ccc(F)cc2)c2ccc(F)cc2)C1C (stereo not given)	u	u
CCCCC(c1nnnn1CC1CCCO1)N1CCN(c2nc3ccccc3s2)CC1 (stereo not given)	-10%	-1%
Cc1ccc(OCC(=O)NNC(=O)c2cccnc2)cc1C	0%	i

Reprinted from the results shown for reference:
SMILES	VACV Venus inh	VACV mCherry inh
COc1ccc(CCNC(=O)CCC(=O)Nc2nnc(C(C)C)s2)cc1OC	-7%	i
CSCCC(=O)N1CCC(CCC(=O)NC2CC2)CC1	-17%	-13%
Cc1cc(C(=O)COC(=O)Cc2c(F)cccc2Cl)c(C)n1C	-12%	-24%
CC(=O)N1c2ccccc2C(=O)C1N1CCCCC1 (stereo not given)	-6%	x
COc1cccc(N2CCN(c3ccc4nnc(CCC(=O)Nc5ccc(F)cc5F)n4n3)CC2)c1	-11%	i
O=C(Oc1ccc(Br)cc1C(=S)N1CCOCC1)c1cccc([N+](=O)[O-])c1	-24%	-28%
COc1ccc(-c2csc3ncnc(Nc4cccc(F)c4)c23)cc1	-1%	-11%
Cc1c(/C(O)=C2/C(=O)C(=O)N(Cc3cccnc3)C2c2ccccn2)cnn1-c1ccccc1 (stereo not given)	8%	-9%
CC(=O)c1cccc(NC(=O)C(OC(=O)c2cccc(S(=O)(=O)N(C)c3ccccc3)c2)c2ccccc2)c1 (stereo not given)	0%	-5%
COc1ccc(-c2c(C#N)c(SCC(N)=O)nc3c2CCCC3)cc1	-13%	-22%
CN1C(=O)CC(CC(=O)N2CCCCC2CCO)(c2cccc(F)c2)C1=O (stereo not given)	0%	-10%
O=C(CSc1nc(-c2ccccc2)nc2ccccc12)Nc1nccs1	-24%	-8%
CC1(C)Cc2ccccc2/C(=C/C(=O)N2CCCCCC2)N1	-13%	-1%
CSc1nc(C)c(C(=O)C[n+]2ccc(C)cc2)cc1C#N	-10%	u
CC(C)Nc1nc(NC(C)C)nc(SCCOC(=O)Nc2ccc(Cl)cc2Cl)n1	-4%	-4%
CC1CCCC(NCC(O)COC(c2ccc(F)cc2)c2ccc(F)cc2)C1C (stereo not given)	u	u
CCCCC(c1nnnn1CC1CCCO1)N1CCN(c2nc3ccccc3s2)CC1 (stereo not given)	-10%	-1%
Cc1ccc(OCC(=O)NNC(=O)c2cccnc2)cc1C	0%	i

Remaining list, next part:
SMILES	VACV Venus inh	VACV mCherry inh
CN1CCN(CCCn2cnc3c(=O)oc4ccccc4c32)CC1	-4%	-6%
CCOC(=O)C1=C(C)NC(C)=C(C(=O)OCC)C1C(=O)OCC(=O)N1CCCCC1CC (stereo not given)	-16%&-17%	-19%
COc1ccc(NC(=O)c2cc(S(=O)(=O)N3CCc4ccccc43)cn2C)c(OC)c1	-8%	10%
O=C(O)C1CCCCC1C(=O)N1CC=C(c2ccccc2)CC1 (stereo not given)	-6%	x
CNCCCc1[nH]nc(N)c1C#N	-7%	i
S=C(NCC1CCCO1)NC12CC3CC(CC(C3)C1)C2 (stereo not given)	-10%	-11%
O=C(CN1C(=O)S/C(=C\c2ccccc2)C1=O)NC1CCS(=O)(=O)C1 (stereo not given)	-10%	-21%
O=S(=O)(Nc1ccc(Cl)cn1)c1cccs1	3%	8%
CCn1nc(C)c(NC(=O)c2ccc(Br)o2)c1C	20%	16%
COC(=O)C1CCN(C(=O)C2CCN(C(=O)[C@H](C)NS(=O)(=O)c3ccc(C)cc3)CC2)CC1	-11%	-9%
Cc1ccc(CNC(C)c2ccccc2)s1 (stereo not given)	-1%	1%
Cc1ccc2nc(N3CCC(C(=O)N4CCC5(CC4)OCCO5)CC3)sc2c1	-29%	x
Cc1ccc(CN(C(=O)COc2ccc(F)cc2)C2CCS(=O)(=O)C2)o1 (stereo not given)	1%	2%
Cn1c(=O)c2c(ncn2CCOC(=O)C(C)(C)Oc2ccc(Cl)cc2)n(C)c1=O	-8%	i
COc1cccc(N2C(=O)C3C(C2=O)C2C=CC3C23CC3)c1 (stereo not given)	-5%	x
O=C(NCCC1=CCCCC1)c1cc(-c2ccncc2)nc2ccccc12	-13%	i
COc1ccc(CCNC(=O)CSc2ccccn2)cc1	-9%	-6%
COC(=O)CN1C(=O)C(O)(CC(=O)c2ccc(Br)cc2)c2ccccc21 (stereo not given)	-10%	i
CCSc1nc(-c2ccccc2)c(-c2ccccc2)n1CC(O)CO (stereo not given)	-27%	-7%
O=C(CC(Nc1ccc(F)cc1)c1ccccc1)c1ccccc1 (stereo not given)	-22%	-17%
C/C(=N\Nc1ncc(Cl)cc1Cl)c1ccc(N2CCOCC2)cc1	-10%	i
Cc1ccc(S(=O)(=O)N2CCC(C(=O)N3CCc4ccccc43)CC2)cc1	-12%	-14%
COc1ccccc1CNC(=O)C1CCN(S(=O)(=O)c2cccc3nonc23)CC1	-17%	-7%
Cc1ccc(NC(=O)Cc2nc(COC(=O)Cc3cccc(C(F)(F)F)c3)cs2)cc1	-10%	-11%
Cc1ccccc1CN1CCN(S(=O)(=O)c2ccc(F)cc2)CC1	-11%	1%
COc1cc(CNCc2ccco2)cc(OC)c1O	-16%	-11%
CN1/C(=C\C(=S)NC(=O)c2ccccc2Cl)C(C)(C)c2ccccc21	23%	-9%
COc1ccccc1CNc1nccn(-c2ccccc2)c1=O	-15%	-1%
Cc1ccc(C(=O)NN(C)c2nc3ccccc3nc2C(F)(F)F)cc1	-27%	x
CN(C)c1ccc(CNc2ncnc3sccc23)cc1	-17%	-24%
O=C(CN(C(=O)Cn1nnc(-c2ccc(F)cc2)n1)c1cccc(F)c1)NC1CCCC1	-7%	-6%
